D2 ag: Beta-Arrestin HTS for Positive Allosteric Modulators of the Human D2 Dopamine Receptor: Agonists. D(2) dopamine receptor (Homo sapiens), P14416. activation, % (concentration not given with the values). 0.084% of 360,000 active. DiscoveRx PathHunter D2 beta-arrestin, luminescence, 90 min; 100% = 57 uM dopamine signal. AID 624465, 2012; in the data active = activation above about 40%; inconclusive = about 15% to 40%; inactive = below about 15%; further: compound concentration not given in the record; the text of the record calls up to 30% inactive
Target sequence (P14416 whole entry, looked up): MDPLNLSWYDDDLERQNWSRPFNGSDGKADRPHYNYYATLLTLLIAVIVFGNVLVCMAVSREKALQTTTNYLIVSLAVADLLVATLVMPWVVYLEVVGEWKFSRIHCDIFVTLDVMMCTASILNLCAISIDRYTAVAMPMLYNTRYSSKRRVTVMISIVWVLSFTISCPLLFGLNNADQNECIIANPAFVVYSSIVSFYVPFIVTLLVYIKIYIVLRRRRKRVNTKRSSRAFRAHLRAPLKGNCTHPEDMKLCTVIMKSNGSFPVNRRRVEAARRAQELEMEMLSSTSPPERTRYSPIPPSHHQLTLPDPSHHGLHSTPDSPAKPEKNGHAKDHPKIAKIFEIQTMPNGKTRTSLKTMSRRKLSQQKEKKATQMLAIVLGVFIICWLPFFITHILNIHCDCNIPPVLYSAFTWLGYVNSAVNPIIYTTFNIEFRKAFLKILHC
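DiscoveRx PathHunter D2 beta-arrestin cells (2,100/well) attached overnight, then compound-stimulated 90 min at 37 C in HBSS/10 mM HEPES/0.1% Tween-20 buffer; beta-galactosidase complementation read by luminescence after 1 h at ambient temperature. Dopamine 57 uM final (EC100) as control.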
gsp antagonist: qHTS for Antagonists of gsp, the Etiologic Mutation Responsible for Fibrous Dysplasia/McCune-Albright Syndrome: qHTS; gsp-mutant cells, cAMP HTRF, 30 min; control for the full effect not named in the record; 0.4% of 340,000 active; Potency, µM (titrated, usually from 76.9 µM), inactives show at the highest dose activity change, negative = inhibition, most hits filed as inhibitors; AID 624288, 2012; active = falling curve of any shape with a large fitted effect; inconclusive = falling curve, mostly with a smaller effect; inactive = flat or rising curve; cell line not stated here;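 further: intracellular cAMP measured with PDE inhibitor Ro 20-1724 present during compound exposure; potency means the concentration at half of the fitted maximal effect; on the % scale 0 is the no-effect control and ±100 the full control effect; nearly all actives have a fitted effect of over 65% in size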
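Measurement of cellular cAMP by homogeneous time-resolved fluorescence following a 30 min compound exposure at 37C. The PDE inhibitor […] was present throughout; the assay buffer was DPBS with 0.05% BSA and 0.005% Tween 20.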
gsp ag: qHTS for Agonist of gsp, the Etiologic Mutation Responsible for Fibrous Dysplasia/McCune-Albright Syndrome: qHTS; gsp mutant cells, cAMP HTRF, 30 min; control for the full effect not named in the record; Potency, µM (series often up to 76.9 µM), without a hit: at the top dose activation (cAMP increase), usual class: activators; 0.13% of 340,000 active; AID 624287, 2012; active = well fitted activation curve with a large enough effect; inconclusive = small, poorly fitted or top-dose-only effect, or another doubt; inactive = no such curve, though single readings can be large or run the other way; cell line not stated here;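 further: phosphodiesterase inhibitor Ro 20-1724 added with compounds to block cAMP breakdown; potency means the concentration at half of the fitted maximal effect; nearly all actives have a fitted effect of over 60% in size; about a fifth of the inactives were tested at one dose only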
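Cells in DMEM/10% FBS with G418 were pretreated with compounds in DMSO plus […] (300 uM stock) for 30 min at 37C. cAMP was measured by HTRF (cAMP-d2 plus anti-cAMP antibody-K) after 30 min at room temperature.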
D2 PAM: Beta-Arrestin HTS for Positive Allosteric Modulators of the Human D2 Dopamine Receptor: Potentiators; 0.23% of 360,000 active; DiscoveRx D2 beta-arrestin cells, luminescence, 90 min; 100% = 57 uM dopamine signal; D(2) dopamine receptor (Homo sapiens), P14416; AID 624464, 2012; potentiation, % (no concentration beside the values); active = potentiation of 50% or more; inconclusive = 30% to 50%; inactive = 30% or less;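 further: compound concentration not given in the record; tested on top of an EC20 dose of dopamine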
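PathHunter beta-arrestin assay in DiscoveRx D2 cells. Compounds were added with an EC20 of dopamine (50 nM final) for 90 min at 37 deg C. Luminescence was read 1 h after detection reagent, with 57 uM dopamine as the EC100 control.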
CtBP-E1A inh: qHTS Assay for Inhibitors of the CtBP/E1A Interaction; 0.49% of 340,000 active; activity change, % (test concentration not listed); CtBP / adenovirus E1A interaction (AlphaScreen); AID 651724, 2012; AlphaScreen GST-E1A/His-CtBP binding, 1536-well; stronger effect = lower value; control for the full effect not named in the record; in the data active means activity change below about -65%; inconclusive means about -30% to -65%; inactive means above about -30%; further: on the % scale 0 is the no-effect control and ±100 the full control effect; compound concentration not given in the record
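Homogeneous bead-based format: GST-tagged E1A captured on glutathione donor beads, His-tagged CtBP on nickel acceptor beads; compounds precede bead addition by 2 h at 37 °C.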
Six1-Eya2 inh: qHTS Assay for Inhibitors of the Six1/Eya2 Interaction. Homeobox protein SIX1 (Homo sapiens) + Protein phosphatase EYA2 (Homo sapiens), …. AlphaScreen GST-Six1/His-Eya2 binding, biochemical; stronger effect = lower value; control for the full effect not named in the record. activity change, % (concentration not given with the values). 0.56% of 360,000 active. AID 651725, 2012; in the data active = activity change below about -65%; inconclusive = about -30% to -65%; inactive = above about -30%; further: on the % scale 0 is the no-effect control and ±100 the full control effect
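AlphaScreen with GST-Six1 and His-Eya2 (5X mix: 250 nM and 500 nM), glutathione donor and nickel acceptor beads; buffer 50 mM Tris pH 8.0, 300 mM NaCl, 1 mM TCEP; 1 h at 37 C in the dark.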
* hit, by the source's call; u = inconclusive; x = no result given; [ ] = another dose, or the depositor's remark.

mol,D2 ag,gsp antagonist,gsp ag,D2 PAM,CtBP-E1A inh,Six1-Eya2 inh
Cc1ccc(C(=O)NCCN2C3=NC[C@H](C)N3C[C@H]2Cc2ccc(O)cc2)cc1Br,-3.3,-1.3%,-18.3%,-29.9,-4.0,-4.5
Cc1c(C(=O)NC2CC(=O)N(c3ccc4c(c3)OCCO4)C2)cccc1[N+](=O)[O-] (configuration not stated),-2.8,-7.7%,-3.4%[15.4 µM],-2.7,0.0,3.6
CC(C)N(Cc1nc(-c2ccccc2)no1)S(=O)(=O)c1ccccc1,-1.0,-13.5%,4.0%,-1.5,-3.7,12.6
CCCCc1ccc(-c2csc(/C(C#N)=C/c3ccc(C)o3)n2)cc1,-3.8,-6.3%,-9.0%,-9.2,10.6,5.8
COc1ccccc1N(C)S(=O)(=O)c1ccc(C(=O)OCC(=O)NCc2cccs2)cc1,-0.7,u,6.9%[15.4 µM],-0.5,5.2,-3.9
O=c1[nH]c(/C=C/c2ccccn2)nc2ccccc12,-9.2,u,-26.8%,-6.1,x,-8.0
CC(C)CC(=O)Nc1ccc2c(c1)OCO2,-2.1,10.6%,0.5%[15.4 µM],-2.9,0.0,0.3
CN(C)/C=C1\N=C(c2ccccc2)OC1=O,-2.0,3.8%,16.7%,-9.7,-8.9,0.7
O=C(NCc1ccccc1)c1cc(C2CCCN(C(=O)C3CC3)C2)on1 (configuration not stated),-1.5,x,x,-0.9,6.0,-2.9
CCc1nc(CN2CCCC(C(=O)c3ccc4c5c(cccc35)CC4)C2)c(C)[nH]1 (configuration not stated),-2.3,-5.5%,14.6%[15.4 µM],-17.9,-8.5,-7.0
CCOc1ccc(-n2ccnc2SCC(=O)NCc2ccc3c(c2)OCO3)cc1,0.5,0.7%,7.0%,1.5,-21.1,-4.9
O=S(OCCN1CCOCC1)C(c1ccccc1)c1ccccc1 (configuration not stated),5.3,4.4%,32.6%,-7.1,5.4,-1.3
CC(C)CN=CC1=C(O)c2ccccc2C1=O,-4.2,-5.6%,-2.6%[15.4 µM],-4.8,3.6,-11.1
C#CCOCCOCCOCCNc1nc(N2CCN(C(=O)[C@H](CCCCN)n3cc([C@@H](N)C(C)CC)nn3)CC2)nc(N2CCN(C(=O)[C@H](CCCCN)n3cc([C@@H](N)CC(C)C)nn3)CC2)n1 (some centres not stated),-2.7,7.9%,x,-11.0,-13.4,-24.7
CC(C)(C)c1ccc(C(O)c2ncc(-c3ccc4ccccc4c3)[nH]2)cc1 (configuration not stated),-7.5,x,x,-3.8,-19.4,-15.6
CN1CCN(S(=O)(=O)c2cccc(C(=O)Nc3sc4c(c3-c3nc5ccccc5[nH]3)CCCC4)c2)CC1,-2.0,-2.4%,0.1%,-10.0,17.5,1.1
CCCCNC(=O)NCc1cnn(C)c1C,-2.5,12.8%,8.1%[15.4 µM],-8.6,2.2,2.9
CC(=O)c1ccc(NC(=O)c2ccc3snnc3c2)cc1,-2.1,3.3%,u,-44.2,-4.8,-12.8
CCOc1cc(C2C3=C(CC(C)(C)CC3=O)N(CCCOC)C3=C2C(=O)CC(C)(C)C3)ccc1OC,5.7,-0.4%,-22.7%,0.5,x,-4.8
COc1ccc(/C=N/NC(=O)c2ccccc2OC)cc1COc1ccc(C)cc1,-2.6,-3.3%,-33.8%[inhibitor],-13.9,-3.1,3.9
COc1ccc(-c2nc(N)n(C(=O)c3cccs3)n2)cc1,-2.7,1.0%,1.4%[15.4 µM],-0.8,-1.1,2.4
NC(=O)C1CCN(c2ccc([N+](=O)[O-])cc2Cl)CC1,-2.1,3.6%,5.3%,-1.3,-5.6,5.4
COc1nc(N2CCCC2)nc(-n2nnc(C(C)=O)c2C)n1,0.6,-13.4%,22.4%[15.4 µM],-0.7,14.1,4.9
Oc1ccc(-c2nc3ccc4ccccc4c3c3c2CCC3)cc1O,8.1,-10.8%,8.5%,22.1,7.9,u
COc1ccc([N+](=O)[O-])cc1NS(=O)(=O)c1ccc(C(=O)N2CCCC2)cc1,-5.9,-6.1%,9.4%,-15.7,-4.8,5.7
COC(=O)c1cc(Sc2c(Cl)cccc2Cl)ccn1,0.1,x,1.4%[15.4 µM],11.2,17.0,4.8
CCCN(CCC)S(=O)(=O)c1nc2nc(C)cc(C)n2n1,-4.5,1.1%,u,-7.4,24.9,12.3
O=C(O)C1Cc2ccccc2-c2ccccc2C1,-2.5,0.3%,-24.1%,-12.6,x,-4.6
CC(C)Cn1c(N)c(C(=O)COC(=O)c2cnccn2)c(=O)n(C)c1=O,-19.5,2.9%,-0.5%[15.4 µM],1.9,-3.8,2.7
COc1ccc(CC(=O)Nc2ccc(S(=O)(=O)N(C)C3CCN(C)CC3)cc2)cc1,-4.5,16.9%,-108.6%[inhibitor],-2.8,2.8,-4.8
CCOC(=O)c1ccccc1NC(=O)CSc1nnc(COc2ccccc2C)n1C,-2.5,-19.2%,u,7.9,-8.2,-2.6
CC(=O)C1(O)C(C)CC2C3CC(F)C4(O)CC(O)CCC4(C)C3CCC21C (configuration not stated),-1.2,6.6%,17.1%,-1.4,3.4,-1.9
COc1ccc(C(C)=O)cc1COC(=O)CCNS(=O)(=O)c1ccc(C)c(C)c1,0.0,-18.1%,-24.3%,3.4,-8.2,-0.5
COc1ccc(/C=C/C(=O)OCC(=O)Nc2c(C)cccc2C)cc1,-4.6,7.7%,-22.8%,-3.8,3.7,-0.5
Nc1nonc1-n1nnc(C(=O)N/N=C/c2ccco2)c1CSc1ccccc1,-1.1,-14.3%,20.2%,5.9,5.7,11.8
CCNC(=O)NC(=O)C(C)OC(=O)CCCSc1nc2ccccc2s1 (configuration not stated),-0.2,-7.1%,-1.0%,-17.8,-7.8,-2.6
Cc1ccc(Cn2ccsc2=NC(=O)COC(=O)c2ccc(O)cc2O)cc1,3.1,u,-33.1%[inhibitor],-1.6,-0.5,3.4
CCC(C)Sc1cccc(-c2nc3cc(C)ccn3c2NCc2ccccc2)c1 (configuration not stated),1.2,u,u,-13.7,1.8,-3.5
OCc1nc2ccccc2n1CCCOc1ccc(Br)cc1,-3.6,8.6%,24.0%,-32.6,-0.6,-9.3
COC(=O)c1cccc(NC(=O)c2ccc3c(c2)C(=O)N(Cc2cccnc2)C3=O)c1C,3.6,1.0%,-54.7%[inhibitor],3.8,-1.0,4.6
CC(=O)Nc1cc2c(cc1NC(=O)Cn1nc(-c3ccc4c(c3)OCCO4)ccc1=O)OCCO2,0.0,3.9%[15.4 µM],27.8%,-12.1,-1.2,5.6
O=C1CC(N2CCC(O)(c3ccc(Br)cc3)CC2)C(=O)N1c1ccc(Cl)cc1 (configuration not stated),0.9,-4.6%,-5.0%,-1.8,1.5,8.7
COc1cc(Br)c(C(=O)c2nccc3cc(OC)c(OC)cc23)cc1OC,u,16.0%,17.1%,28.0,u,0.6
CN(C(=O)CN1C(=O)/C(=C/c2ccc(F)cc2)SC1=S)C1CCS(=O)(=O)C1 (configuration not stated),10.0,1.2%,-18.8%,-20.8,-15.7,1.4
Cc1ccc2nc(-c3ccccc3)c(CN3CCOCC3)n2c1,-5.1,-0.8%,-19.1%,-3.3,0.2,0.7
Cc1csc(Sc2nc3c(c(=O)[nH]c(=O)n3C)n2Cc2ccccc2Cl)n1,-1.0,39.8µM*,0.7%,-2.5,6.1,-1.3
O=C(CSc1nnc(COc2ccccc2)n1Cc1ccco1)Nc1ccc2c(c1)OCCO2,1.7,-5.0%,4.0%,-4.4,-3.8,-5.2
NC(=O)c1c(NC(=O)c2cccs2)sc2c1CCCCCC2,5.8,u,-18.9%,11.2,8.0,-2.1
COC(=O)c1cn(Cc2ccc(C(F)(F)F)cc2)cc(F)c1=O,-2.6,9.4%,-12.3%,-22.3,-19.8,9.7
CC(C)(Oc1ccc(Cl)cc1)C(=O)NC1CCSC1=O (configuration not stated),-1.1,0.7%,7.0%,-4.1,-2.0,-0.8

(continued)
mol,D2 ag,gsp antagonist,gsp ag,D2 PAM,CtBP-E1A inh,Six1-Eya2 inh
CCN1CCCC1CN=Cc1c(O)n(-c2ccccc2)c(=O)c2ccccc12 (configuration not stated),-1.6,-9.4%,8.3%,-1.6,-0.8,-1.1
CCc1nnc(NC2=NCCC2)s1,-1.3,7.6%,-6.2%,-11.0,2.2,6.2
CC1(C)C(=O)OC(c2c(F)c(F)c(F)c(F)c2F)C2(CCCCC2)C1=O (configuration not stated),0.0,-4.4%,-7.0%,-1.0,5.3,11.8
CCc1cc(-c2nnn(CCC3COCCO3)c2CC)cc(CC)c1-c1cn(Cc2ccccc2)nn1 (configuration not stated),-2.0,x,u,x,0.4,0.9
CCc1ccc(-c2cc(C)no2)cc1S(=O)(=O)N1CCCN(Cc2ccc(F)cc2)C1,-0.3,-5.2%,23.2%,-15.1,-2.8,-3.1
O=C(NCc1cccs1)c1noc2c1CCCCC2,-1.9,7.5%,-4.0%,-9.0,7.7,6.0
C[N+]1(CC2COC3(CCCCC3)O2)CCCC1 (configuration not stated),-1.4,8.8%,-4.4%,-20.5,2.1,10.5
CCOC(=O)C1CCN(Cc2cc(C(C)(C)C)c(O)c(C(C)(C)C)c2)CC1,1.1,0.0%,-1.0%,-5.8,-0.3,-12.1
CN(Cc1ccccc1)c1nc2nonc2nc1N1CCCC(CN2CCCC2=O)C1 (configuration not stated),-4.4,-9.0%,-9.7%,-7.9,x,-18.4
Cc1ccc(-c2nnc(SCCC(=O)N3CCOCC3)o2)cc1,6.7,6.8%,u,-12.4,-8.4,6.3
